High-throughput results from PubChem BioAssay.
HNF4A DNA FP: change in binding of human HNF4A to DNA, primary screen, biochemical, fluorescence polarization, FITC-DNA; activity change, % at 10 µM; 0.3% of 360,000 active; 1 h; Hepatocyte nuclear factor 4-alpha (Homo sapiens), P41235; in the data active = activity change above about 30%, passing the limit was not always enough;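 also: controls were the assay level and a saturating level of protein; the project sought stronger binding though the title names inhibitors; some compounds called inactive have numbers as strong as hits; positive values seem to mean higher polarization but the record does not say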
Target sequence (P41235 whole entry, looked up): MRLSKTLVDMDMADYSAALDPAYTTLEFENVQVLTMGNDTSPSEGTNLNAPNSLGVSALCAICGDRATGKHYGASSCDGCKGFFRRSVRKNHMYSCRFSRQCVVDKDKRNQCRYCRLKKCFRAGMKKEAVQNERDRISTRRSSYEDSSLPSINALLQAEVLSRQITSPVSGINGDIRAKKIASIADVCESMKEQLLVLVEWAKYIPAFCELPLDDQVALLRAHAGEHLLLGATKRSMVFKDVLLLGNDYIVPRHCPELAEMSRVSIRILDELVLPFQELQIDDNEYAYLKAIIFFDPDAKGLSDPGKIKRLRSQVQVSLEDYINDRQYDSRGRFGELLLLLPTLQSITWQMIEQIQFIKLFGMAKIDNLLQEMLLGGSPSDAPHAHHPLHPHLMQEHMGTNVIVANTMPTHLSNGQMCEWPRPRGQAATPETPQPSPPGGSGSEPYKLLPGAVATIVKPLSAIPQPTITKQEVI
Ecoli growth: E. coli growth inhibition, primary screen, OD600; Escherichia coli growth, 23 h; active compounds read low; OD600 absorbance (concentration not given with the values); 0.21% of 330,000 active; AID 1053175, 2014;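 active = OD600 absorbance below the run mean of sample wells minus 3.6 SD, in any replicate, cut at about 0.56 in these data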;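 also: stock transfer was 300 nL into about 60 µL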
AF4-AF9 inh: inhibitors of AF4 peptide binding to AF9, primary screen, biochemical, AlphaScreen, biotin-AF4 peptide, FLAG-AF9, single point; Protein AF-9 (Homo sapiens), P42568; inhibition, % at 10 µM; AID 651704, 2012; 0.47% of 350,000 active;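 active = every replicate reaching a set inhibition limit, whatever the replicate mean, cut at about 25% in these data; inconclusive = mean inhibition reaches that limit but some replicates miss it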;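 also: 0% = plate neutral control median and 100% = total signal loss; the record names both 10 and 1 µM as test concentration; the first replicate is given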
FGF22 binding: binders of human FGF22 protein, primary screen, FGF22 synaptogenesis inhibitor project, biophysical, thermal shift, single point; Fibroblast growth factor 22 (Homo sapiens), Q9HCT0; recombinant FGF22 thermal shift, SYPRO orange fluorescence; percent of sucrose octasulfate shift, DMSO zero; calls only at 9.99 µM; 1.5% of 340,000 active; AID 651658, 2012;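 active = melting point raised past a set limit in the mean and every replicate; inconclusive = no clear call; three in four hits are not shown here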
Target sequence (Q9HCT0 whole entry, looked up): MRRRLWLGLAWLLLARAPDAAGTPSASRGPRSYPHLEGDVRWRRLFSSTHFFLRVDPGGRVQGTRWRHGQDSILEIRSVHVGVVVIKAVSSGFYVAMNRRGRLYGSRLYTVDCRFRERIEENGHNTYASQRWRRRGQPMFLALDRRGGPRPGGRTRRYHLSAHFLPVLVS
Ecoli rRNA inh: reduced GFP signal of wild-type E. coli, primary screen, bacterial rRNA inhibitor project, GFP/RFP fluorescence, OD600, single point; E. coli WT GFP vs humanized-ribosome RFP mutants, 24 h; active compounds read low; DMSO median 0, no signal -100; AID 720706, 2013; GFP signal change (wild-type ribosome), % (concentration not given with the values); 1.6% of 350,000 active;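 active = significant combined selectivity score with lowered wild-type GFP, culture density cut under 30%, mutant RFP and density less affected; inactive = any of these conditions unmet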; also: one replicate is shown; some compounds called inactive have numbers as strong as hits
Vif TR-FRET: inhibitors of Vif binding to APOBEC3G peptide, primary screen, biochemical, TR-FRET, GST-Vif 1-94, biotin-A3G peptide, dose response retest (AID 1117319); TR-FRET GST-Vif / biotin-A3G peptide binding; higher % means a stronger effect; test concentration not given here; strong numbers were not always called active; inhibition, %; hits with a dose series show IC50 in µM; 0.57% of 260,000 active; Virion infectivity factor (Human immunodeficiency virus type 1 group M subtype B (isolate …;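 active = above the screen mean plus three standard deviations and confirmed in dose response; inconclusive = results disagree or hit not tested in dose response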;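 also: Vif residues 1-94 fused to GST binding biotinylated APOBEC3G peptide 110-148; 0% = full assay without inhibitor and 100% = GST in place of GST-Vif; retest series ran down from 100 µM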
ALR inh: inhibitors of human ALR sulfhydryl oxidase, primary screen, biochemical, H2O2 detection, HRP-luminol luminescence, single point; FAD-linked sulfhydryl oxidase ALR (Homo sapiens), P55789; purified ALR, DTT oxidation; inhibition, % (concentration not given with the values); 3.8% of 290,000 active;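 active = mean and each replicate at 75% or more; inconclusive = only one of the two met; inactive = neither met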;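 also: stock transfer was 7.5 nL into about 7.5 µL; 0% = neutral wells and 100% = wells with inactivated enzyme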
Target sequence (P55789 whole entry, looked up): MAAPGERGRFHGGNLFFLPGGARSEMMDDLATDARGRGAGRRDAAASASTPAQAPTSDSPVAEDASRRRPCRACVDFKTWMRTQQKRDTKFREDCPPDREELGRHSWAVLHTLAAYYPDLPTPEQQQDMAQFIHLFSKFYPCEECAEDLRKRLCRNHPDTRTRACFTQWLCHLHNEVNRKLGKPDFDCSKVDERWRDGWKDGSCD
Ecoli rRNA inh OD600: also measured in Ecoli rRNA inh; calls as there; OD600 change, %; measured here: OD600 growth;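 optical density of the mix in the first replicate; 0 = DMSO median and -100 = no signal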
Ecoli rRNA inh RFP: further read-out of Ecoli rRNA inh, marked with its call; RFP signal change, %; measured here: RFP humanized mutant strains;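 first replicate; 0 = DMSO median and -100 = no signal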
* hit, by the source's call; i = inactive; ? = inconclusive; / = no result given; & = joins results of further samples. Only part of the results is shown (hit frequency here may not be typical).

SMILES	HNF4A DNA FP	Ecoli growth	AF4-AF9 inh	FGF22 binding	Ecoli rRNA inh	Ecoli rRNA inh OD600	Ecoli rRNA inh RFP	Vif TR-FRET	ALR inh
CC1(C)Cc2ccccc2-c2[nH]c(=S)[nH]c(=O)c21	1.7	0.634	-1.5	i	1.4	0.3	2.6	/	-3.4
Cn1ccnc1CC(C)(O)c1ccccc1 (centres undefined)	2.0	/	0.4	i	/	/	/	-1.7%	/
C[C@H](CO)N1C[C@H](C)[C@H](CN(C)S(=O)(=O)c2ccc(F)cc2)Oc2ncc(Br)cc2C1=O	3.4	/	-2.0&5.2&-0.2	i	7.5&-1.2	16.9&-0.8	-2.4&-2.0	/	/
CCOCC(O)CNC(=O)c1ccc(OC2CCN(C(=O)c3cccnc3)CC2)cc1 (centres undefined)	3.4	0.68	-0.9	i	11.4	-3.0	-1.1	?	10.4
C[C@@H]1CN([C@H](C)CO)C(=O)c2cccc(NS(=O)(=O)c3ccccc3)c2O[C@H]1CN(C)Cc1ccncc1	/	/	-1.4	i	2.1	0.0	-1.1	/	/
Cc1ccc(CNc2nc3ccccc3s2)s1	-0.9	0.747	/	/	/	/	/	?	-5.7
CCn1c(SCC(=O)NC2=NCCS2)nnc1C(C)NC(=O)c1ccc(Cl)cc1 (centres undefined)	-0.8	/	-1.2	i	0.8	-0.5	1.6	-6.0%	/
COc1ccc(C2=NS(=O)(=O)N(C)C(C(=O)NC3CCCC3)=C2)cc1OC	-2.4	0.68	-1.8	i	-4.2	2.3	-0.7	/	-1.3
C[C@@H]1CN([C@H](C)CO)C(=O)c2cccc(NC(=O)c3cnccn3)c2O[C@H]1CN(C)Cc1ccccc1	/	/	-25.5	i	-1.5	4.2	-2.9	/	/
COc1ccc(C(=O)Nc2ccc(S(=O)(=O)Nc3cc(C)nc(C)n3)cc2)c(OC)c1	-0.5	0.698	/	/	/	/	/	-5.2%	2.6
O=C(NNC(=O)C1CC(c2cccs2)=NO1)Nc1ccccc1 (centres undefined)	-0.6	0.664	0.5	i	9.2	10.1	2.6	/	10.0
Cc1c(N(C)C(=O)c2ccccc2F)c(=O)n(-c2ccccc2)n1C	0.8	0.694	/	/	-2.5	-9.0	0.5	11.8%	-2.9
OC[C@@H]1Nc2ccc(-c3ccccc3)cc2[C@H]2[C@@H]1CCN2Cc1ccc(F)cc1	/	/	-2.9	i	-11.8	-24.5	-5.6	/	/
CC(C)C#Cc1ccc2c(c1)O[C@@H](CN(C)CC1CC1)[C@@H](C)CN([C@H](C)CO)S2(=O)=O	/	/	5.2	i	0.8	5.5	-3.0	/	/
CCOc1ccc(C(=O)NCc2ccccc2)cc1Br	1.0	0.639	-0.4	i	-21.9	-53.0	-10.1	5.5%	5.4
O=C(NCCCn1ccnc1)C(=O)NCC1OCCCN1S(=O)(=O)c1ccc(F)cc1 (centres undefined)	-5.6	0.639	-0.1	i	9.2	8.0	0.7	-2.2%	-19.9
Cc1oc2cc(O)ccc2c(=O)c1Oc1ccc2ccccc2c1	-1.1	0.656	/	/	/	/	/	27.1%	-7.3
CSCCC(NC(=O)c1cc([N+](=O)[O-])ccc1Cl)C(=O)O (centres undefined)	1.9	0.685	/	/	/	/	/	/	-5.8
O=C(NC(=S)Nc1nc(-c2ccccc2)cs1)c1ccco1	-1.9	0.73	0.6	i	1.4	-3.4	4.9	/	-2.8
Cc1cc(C)n2c(Nc3ccc4c(c3)OCCO4)c(-c3ccc(C)o3)nc2n1	1.8	0.683	8.4	i	2.6	9.2	11.7	1.7%	/
Cn1c(=O)c([N+](=O)[O-])c(N2CCN(Cc3ccc4c(c3)OCO4)CC2)c2ccccc21	1.4	0.652	11.2	i	/	/	/	26.6%	-6.3
CCC(=O)Nc1c(C)nn(C(=O)CC)c1C	3.2	0.713	/	/	/	/	/	?	5.9
COc1ccc(/C=C(\C#N)C(=O)Nc2cc(S(=O)(=O)N3CCOCC3)ccc2N2CCCC2)cc1	-0.1	0.732	11.4	i	3.6	-2.1	6.2	23.1%	-7.3
CCOC(=O)c1sc(Nc2nc3c(OC)cccc3s2)nc1C	-1.5	0.682	/	/	/	/	/	-5.5%	-4.3

An excerpt from above in order of length of the SMILES, falling:
SMILES	HNF4A DNA FP	Ecoli growth	AF4-AF9 inh	FGF22 binding	Ecoli rRNA inh	Ecoli rRNA inh OD600	Ecoli rRNA inh RFP	Vif TR-FRET	ALR inh
C[C@@H]1CN([C@H](C)CO)C(=O)c2cccc(NS(=O)(=O)c3ccccc3)c2O[C@H]1CN(C)Cc1ccncc1	/	/	-1.4	i	2.1	0.0	-1.1	/	/
C[C@@H]1CN([C@H](C)CO)C(=O)c2cccc(NC(=O)c3cnccn3)c2O[C@H]1CN(C)Cc1ccccc1	/	/	-25.5	i	-1.5	4.2	-2.9	/	/
COc1ccc(C(=O)Nc2ccc(S(=O)(=O)Nc3cc(C)nc(C)n3)cc2)c(OC)c1	-0.5	0.698	/	/	/	/	/	-5.2%	2.6
O=C(NCCCn1ccnc1)C(=O)NCC1OCCCN1S(=O)(=O)c1ccc(F)cc1 (centres undefined)	-5.6	0.639	-0.1	i	9.2	8.0	0.7	-2.2%	-19.9
CCOCC(O)CNC(=O)c1ccc(OC2CCN(C(=O)c3cccnc3)CC2)cc1 (centres undefined)	3.4	0.68	-0.9	i	11.4	-3.0	-1.1	?	10.4
Cc1c(N(C)C(=O)c2ccccc2F)c(=O)n(-c2ccccc2)n1C	0.8	0.694	/	/	-2.5	-9.0	0.5	11.8%	-2.9
CSCCC(NC(=O)c1cc([N+](=O)[O-])ccc1Cl)C(=O)O (centres undefined)	1.9	0.685	/	/	/	/	/	/	-5.8
CC1(C)Cc2ccccc2-c2[nH]c(=S)[nH]c(=O)c21	1.7	0.634	-1.5	i	1.4	0.3	2.6	/	-3.4
O=C(NNC(=O)C1CC(c2cccs2)=NO1)Nc1ccccc1 (centres undefined)	-0.6	0.664	0.5	i	9.2	10.1	2.6	/	10.0
O=C(NC(=S)Nc1nc(-c2ccccc2)cs1)c1ccco1	-1.9	0.73	0.6	i	1.4	-3.4	4.9	/	-2.8
Cn1ccnc1CC(C)(O)c1ccccc1 (centres undefined)	2.0	/	0.4	i	/	/	/	-1.7%	/

More entries
SMILES	HNF4A DNA FP	Ecoli growth	AF4-AF9 inh	FGF22 binding	Ecoli rRNA inh	Ecoli rRNA inh OD600	Ecoli rRNA inh RFP	Vif TR-FRET	ALR inh
COc1ccc(C#Cc2cnc3c(c2)C(=O)N([C@@H](C)CO)C[C@@H](C)[C@H](CN(C)CC2CCCC2)O3)cc1	/	/	12.6	i	-24.1	-32.2	-8.7	/	/
Cc1cc(Cl)ccc1C(=O)C1CCCN(C(=O)c2ccsc2)C1 (centres undefined)	-0.2	0.681	-2.5	i	-6.8	-16.3	-0.2	/	-7.9
Cc1cc(N2CCOCC2)nc2ccc(NC(=S)N3CCN(c4ccccc4)CC3)cc12	-3.7	0.73	0.7	i	5.1	0.1	0.5	/	6.1
COc1ccc(CCNC(=O)CSc2nnc3ccc(-c4ccncc4)nn23)cc1	-3.1	0.685	-44.0	i	-0.8	-2.8	-2.9	-3.5%	-3.0
Cc1ccc(Cn2cnc3ccccc32)cc1C	-1.0	0.628	-0.6	i	-52.9	-81.2	-28.7	3.8%	-54.0
O=C(C[C@H]1CC[C@@H]2[C@H](COC[C@H](O)CN2CC2CC2)O1)NCc1ccc(Cl)cc1	/	/	0.6	i	-1.0	4.5	6.4	/	/
COc1cc2nc(CC(C)C)n(NC(=O)c3ccccc3)c(=O)c2cc1OC	2.4	0.65	9.2	i	4.7	-2.3	-4.0	7.1%	-19.2
C[C@@H]1CN([C@H](C)CO)C(=O)Cc2cc(NC(=O)C3CC3)ccc2O[C@H]1CN(C)Cc1ccncc1	/	/	-0.3	i	2.4	11.6	-0.5	/	/
CCCC(=O)Nc1ccc2c(c1)C(=O)N(C)C[C@@H](OC)[C@H](C)CN(Cc1ccccc1C(=O)O)[C@H](C)CO2	/	/	-1.8	i	4.6	-0.9	-3.2	/	/
COc1ccc(N(CC(=O)NCCc2ccc(C)cc2)S(=O)(=O)c2c(C)noc2C)cc1	4.8	0.7	-4.6	i	5.9	12.9	2.1	3.9%	-22.8
CC(C)(C)c1csc(SCC(=O)Nc2ccc(Cl)cn2)n1	0.4	0.677	/	/	/	/	/	-3.0%	-4.8
COc1ccc(C2C(C(=O)N3CCN(c4ccccc4)CC3)c3ccccc3C(=O)N2C)cc1OC (centres undefined)	-1.1	0.698	/	/	/	/	/	24.9%	25.4
CC(C)[C@@H](C(=O)N[C@@H](Cc1ccccc1)C(=O)O)N1C(=O)N2CCc3c([nH]c4ccccc34)[C@@]2(C)C1=O	-0.5	0.714	-0.4	i	/	/	/	/	8.7
Cc1ccc(C(=O)NCc2ccc3c(c2)OCO3)cc1C	-5.4	/	-4.8	i	3.0	-3.6	1.2	10.0%	-4.9
CCc1ccccc1Nc1nc(N)nc(COC(=O)c2c(C)noc2C)n1	-1.2	0.664	-3.1	i	7.4	8.4	-0.7	-10.9%	-2.6
CN(Cc1cc2cc(F)ccc2[nH]1)Cc1nc(-c2cnccn2)no1	2.7	0.738	-0.5	i	83.6	1.1	1.6	-5.7%	12.2
O=C(NCc1cccs1)c1cnc2ccccn2c1=O	4.1	0.654	5.1	i	12.4	11.5	-2.6	20.9%	-1.0
Cc1cc(C)nc(SC2=CS(=O)(=O)c3ccccc32)n1	1.2	0.736	/	/	/	/	/	5.2%	1.1
CCCC(=O)Nc1ccc2c(c1)C(=O)N(C)C[C@H](OC)[C@@H](C)CN[C@@H](C)CO2	/	/	-0.2	i	2.5	6.2	-0.5	/	/
Cc1ccc(S(=O)(=O)N2CCN(C(=O)CCc3c[nH]c4ccccc34)CC2)cc1	0.6	/	6.2	i	-5.3	-3.0	2.0	0.1%	-2.5
C[C@H](CO)N1C[C@H](C)[C@H](CN(C)Cc2ccc3c(c2)OCCO3)OCc2cn(nn2)CCCC1=O	/	/	-2.0	i	-1.7	6.3	-2.9	/	/
COc1ccccc1NC(=O)Nc1cc(C(C)C)ccc1C	1.7	0.656	3.6	i	7.5	8.9	-3.1	-1.4%	/
CCC1C(=O)N=C(SCC(=O)Nc2cccc3ccccc23)NC1=O (centres undefined)	3.8	0.734	/	/	/	/	/	8.4%	98.8*
CC(Sc1ccc2c(c1)OCCO2)C(=O)Nc1ccc2c(c1)OCO2 (centres undefined)	-1.3	0.702	/	/	/	/	/	8.5%	/
CCCCCCNc1c([N+](=O)[O-])cc(C)cc1[N+](=O)[O-]	-1.7	0.668	/	/	/	/	/	/	-4.4
O=C(c1ccc(Cl)cc1Cl)N1CCN(c2ccc(N3CCOCC3)nn2)CC1	2.0	0.696	-0.7	i	-3.8	-3.6	0.6	/	4.0
COc1ccc(-c2cc(C(=O)NC(C)C)no2)cc1	-0.2	0.694	/	/	/	/	/	-0.1%	1.7
Cc1cc(C(=O)NC2CCCC2)on1	-2.4	0.73	-0.7	i	16.8	17.8	-1.6	25.5%	/
